# Assay outcomes as filed in PubChem BioAssay.
# 2A StopGo – High Throughput Screening for Foot and Mouth Disease Virus Antivirals | human cells with a luciferase reporter of 2A StopGo recoding; control for the full effect not named in the record | Potency, µM (titrated, usually from 57.9 µM), for the others: at the top dose signal change, negative = less light | 1.2% of 410,000 active; active = well fitted falling curve with a large enough effect; inconclusive = small, poorly fitted or top-dose-only effect; inactive = no such curve, though single readings can be large or run the other way; tested in HEK293T cells; also: % is scaled to controls: 0 for no effect and ±100 for the full control effect; nearly all actives have a fitted effect of over 45% in size; luciferase light after 4 h
# SARS PLP yeast – qHTS of Yeast-based Assay for SARS-CoV PLP; S. cerevisiae expressing SARS-CoV PLpro, growth rescue; control for the full effect not named in the record; Potency, µM (titrated, usually from 32.9 µM), inactives show at the top dose activity, positive = growth rescue; 0.19% of 330,000 active; active means well fitted rising curve with a large enough effect; inconclusive means small, poorly fitted or top-dose-only effect; inactive means no such curve, though single readings can be large or run the other way; also: 0% is about no effect; nearly all actives have a fitted effect of over 55% in size; growth read by luminescence after 48 h
# RE007 growth inh – qHTS Assay for Inhibitors of the HIV-1 protein Vpr. S. pombe RE007 Vpr strain, BacTiter-Glo ATP luminescence, 24 h; control for the full effect not named in the record. Potency, µM (top dose mostly 92.2 µM), for the others: top-dose activity change, negative = less growth. 0.21% of 360,000 active; active = well fitted falling curve with a large enough effect; inconclusive = small, poorly fitted or top-dose-only effect; inactive = no such curve, though single readings can be large or run the other way;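 also: % is scaled to controls: 0 for no effect and ±100 for the full control effect; nearly all actives have a fitted effect of over 50% in size; the assay follows cell death caused by Vpr and the record does not say whether a fall means rescue or toxicity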
#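 Fission yeast strain RE007, carrying one chromosomally integrated HIV-1 vpr copy, was seeded at OD 0.01 in PMG+AL medium with 23 nL pinned compound. After 24 h at 30 °C and 99% humidity, viability was read by BacTiter-Glo luminescence.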
# Lassa entry inh – qHTS for Inhibitors of binding or entry into cells for Lassa Virus. Lassa virus pseudotype entry inhibition, cell reporter; control for the full effect not named in the record. Potency, µM (doses to about 37.9 µM), for inactives: top-dose activity change, negative = inhibition, most hits filed as inhibitors. 1.2% of 300,000 active. AID 540256, 2011; active means well fitted inhibition curve with a large enough effect; inconclusive means small, poorly fitted or top-dose-only effect, or effect the other way; inactive means flat fitted curve, though single readings scatter; tested in HEK293 cells; also: % is scaled to controls: 0 for no effect and ±100 for the full control effect; nearly all actives have a fitted effect of over 50% in size; luciferase read-out
# Cruzain Triton – qHTS Assay for Promiscuous and Specific Inhibitors of Cruzain (with detergent) | Potency, µM, without a hit: max response, negative = inhibition, hits mostly inhibitors | purified cruzain, Z-FR-AMC fluorescence, 0.01% Triton | Cruzipain (Trypanosoma cruzi), P25779 | 0.43% of 200,000 active;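 also: plate controls were neutral wells for no effect and buffer without enzyme for full effect; nearly all actives have a fitted effect of over 40% in size; top concentration of the series not given in the record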
# Target sequence (P25779 123-467 limits assumed): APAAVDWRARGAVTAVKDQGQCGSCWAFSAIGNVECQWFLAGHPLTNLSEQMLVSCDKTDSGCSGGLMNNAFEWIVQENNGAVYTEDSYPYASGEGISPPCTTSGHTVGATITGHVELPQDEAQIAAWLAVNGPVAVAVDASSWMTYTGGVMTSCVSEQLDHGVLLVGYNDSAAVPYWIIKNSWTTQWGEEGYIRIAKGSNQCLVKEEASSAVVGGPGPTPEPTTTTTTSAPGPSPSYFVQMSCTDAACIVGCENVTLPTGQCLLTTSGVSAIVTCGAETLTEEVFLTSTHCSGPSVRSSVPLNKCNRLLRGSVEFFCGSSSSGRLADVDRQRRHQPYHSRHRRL
#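 In this qHTS format, compounds are incubated with 1.5 nM cruzain for 15 min at room temperature before 2 uM Z-FR-AMC is added. Release of AMC is followed at 360/450 nm, and progress is taken as the 60 s fluorescence difference.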
# NS1 inh – qHTS Assay for Inhibitors of Influenza NS1 Protein Function. S. cerevisiae slowed by influenza A NS1, growth recovery by OD600. Potency, µM (top dose mostly 46.1 µM), without a hit: top-dose activity, positive = more growth. 0.4% of 270,000 active; active means well fitted rising curve with a large enough effect; inconclusive means small, poorly fitted or top-dose-only effect; inactive means no such curve, though single readings can be large or run the other way; also: nearly all actives have a fitted effect of over 50% in size
#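 A cell-based growth assay was used: compounds that relieve NS1-induced slow growth of budding yeast raise OD600. Assay medium was yeast nitrogen base with ammonium sulphate and -URA supplement, pH 6.0, with 2% galactose.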
# Marburg entry inh – qHTS for inhibitors of binding or entry into cells for Marburg Virus | Potency, µM (series often up to 37.8 µM), for inactives: at the top dose activity change, negative = inhibition, usual class: inhibitors | Marburg virus pseudotyped entry inhibition, cell reporter; control for the full effect not named in the record; about a third of the inactives were read at about 46 µM | AID 540276, 2011 | 1.8% of 300,000 active; active = well fitted inhibition curve with a large enough effect; inconclusive = small, poorly fitted or top-dose-only effect, or effect the other way; inactive = flat fitted curve, though single readings scatter; tested in HEK293 cells; about a fifth of its hits are not listed in these tables; also: % is scaled to controls: 0 for no effect and ±100 for the full control effect; luciferase read-out
# Cruzain noTriton – qHTS Assay for Promiscuous and Specific Inhibitors of Cruzain (without detergent); AID 1476, 2009; purified cruzain, Z-FR-AMC fluorescence, no detergent; Cruzipain (Trypanosoma cruzi), P25779; Potency, µM, for the others: max response, negative = inhibition, usual class: inhibitors; 2.3% of 200,000 active;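 also: plate controls were enzyme without inhibitor for no effect and buffer without enzyme for full effect; nearly all actives have a fitted effect of over 40% in size; top concentration of the series not given in the record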
#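 Purified cruzain at 1.5 nM, pre-incubated 15 min with compound at room temperature in 100 mM sodium acetate pH 5.5, 5 mM DTT, 0.00005% Triton X-100. Reaction started with 2 uM Z-FR-AMC; AMC fluorescence increase over 60 s gives rate.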
# The depositor's hits bear a star; ? = inconclusive; · = not tested or not shown; & = joins results of further samples; [ ] = dose if it differs, or a comment. Unless noted, calls follow the shape of the dose curve; as a rule, active = well fitted curve in the direction sought with a large enough effect; inconclusive = small, poorly fitted or top-dose-only effect, or another doubt; inactive = no such curve, though single readings can be large; an effect the other way counts as inactive or inconclusive. Potency is read from the fitted curve at half-maximal effect.
item	Molecule	Lassa entry inh	SARS PLP yeast	Cruzain noTriton	2A StopGo	Marburg entry inh	NS1 inh	RE007 growth inh	Cruzain Triton
1	CCC(C)(C)NC(=O)C(c1ccccc1)N(C(=O)c1csnn1)C1CC1 (stereo unspecified)	-1%	3%	8%	2%	3%	5%	5%	-0.3%
2	Cc1ccc(NC(NC(=O)c2cccs2)C(Cl)(Cl)Cl)cc1 (stereo unspecified)	?	-30%	2%	-26%	?	-68%	11%	-12%
3	CCC(=O)Nc1ccc(NC(=S)NC(=O)/C=C/c2ccco2)cc1	-14%[46.1 µM]	-2%	·	-18%	?	12%	15%	·
4	Nc1c(C(=O)Nc2nccs2)sc2nc(-c3cccs3)cc(C(F)(F)F)c12	-7%	11%	?	-12%	-22%	-5%	7%	-0.4%
5	CCOc1cc(C(=S)N2CCCC2)ccc1OC(=O)Cc1ccc(F)cc1	·	-1%	·	-3%	·	-9%	-11%	·
6	Cc1ccc(C(=O)Nc2ccc(OCc3ccccc3)cc2)s1	?	2%	·	0%	?	6%	11%	·
7	CCCCSc1nnc(-c2ccc(NC(=O)CC)cc2)n1C	3%	5%	-2%	-13%	7%	-9%	7%	1.0%
8	CCOC(=O)/C(=N\Nc1ccccc1)S(=O)(=O)c1ccccc1	-5%	0%	0%	21%	-24%	-8%	-2%	-7.0%
9	CCn1cc(C(=O)NCC2CCCO2)c(=O)c2cc(S(=O)(=O)N3CCCCC3)ccc21 (stereo unspecified)	2%	3%	?	13%	-29%	5%	-5%	-3.7%
10	Cc1ccc(-n2nc3c(=O)n(CC(=O)NCc4ccc(C)o4)nc(C)c3c2C)cc1	·	3%	·	0%	·	11%	7%	·
11	O=C(O)c1cccc(-c2ccc3c(c2)OCO3)c1	·	-3%	·	17%	·	-66%	-6%	·
12	COc1ccccc1NC(=O)CCSc1nnc(-c2ccc(O)cc2)o1	-16%	3%	·	-8%	1%[46.1 µM]	·	-13%	·
13	Cc1ccc(CC(=O)Nc2nc3c(s2)CCCC3)cc1	?	1%	-5%	25%	?	-8%	-29%	1.9%
14	COc1ccc(C2/C(=C(\O)c3ccc4c(c3)OCCO4)C(=O)C(=O)N2CCCn2ccnc2)cc1 (stereo unspecified)	·	1%	·	3%	·	-15%	-4%	·
15	c1ccc2[nH]c(-c3ccncc3)nc2c1	1%	-1%&-1%	·	34%[activator]	?	-10%&2%	-1%	·
16	CSc1nc2ccc(Br)cc2[nH]1	-1%	-3%	·	18%	?	-45%	-27%	·
17	CCCCN1C(=O)C(O)(CC(=O)c2c(C)coc2C)c2ccccc21 (stereo unspecified)	·	0%	·	3%	·	1%	13%	·
18	O=C1CC(NNc2ccccc2)C(=O)N1c1ccc(N2CCCCC2)cc1 (stereo unspecified)	?	-1%	·	11%	21%[14.2 µM]	10%	-16%	·
19	Cc1csc(NC(=O)c2ccc3c(c2)OCO3)n1	7.1µM*	-4%	·	12%	?	-13%	?	·
20	CCOc1ccc(C(=O)C(C)OC(=O)Cn2cnc3c2c(=O)n(C)c(=O)n3C)cc1 (stereo unspecified)	1%	1%	·	-28%	-19%	·	13%	·
21	Cc1ccc(C2=NN(C(=O)CNCCO)C(c3cccs3)C2)cc1 (stereo unspecified)	·	0%	·	45%[activator]	·	2%	-10%	·
22	COc1cccc(C(O)CC(N)=O)c1 (stereo unspecified)	-3%	2%	-14%	-16%	23%	7%	17%	-1.2%
23	CCCOc1ccc(CNC(=O)Cn2cc3c(n2)-c2c(oc(C(=O)N4CCOCC4)c2C)CC3)cc1	?	·	?	?	·	·	·	-7.1%
24	CCOc1ccc(CNC(=O)c2ccc3nc(CC)c(CC)nc3c2)cc1	-2%[46.1 µM]	·	-6%	4%	·	·	·	3.0%
25	Cc1ccc([C@@H]2[C@@H]3C(=O)N(C)C(=O)[C@@H]3[C@]3(C)C(=O)N(CC4CC4)CC(=O)N23)o1	·	-7%	·	-8%	·	5%	0%	·
26	Cc1ccc(C)c(NC(=O)c2cc(S(=O)(=O)NCCC3=CCCCC3)ccc2F)c1	-22%[46.1 µM]	·	7%	13%	·	·	·	1.3%
27	CC(C)C[C@H](NC(=O)c1[nH]cnc1C(=O)N[C@@H](Cc1ccccc1)C(=O)OC(C)(C)C)C(=O)OC(C)(C)C	·	0%	·	-13%	·	9%	-6%	·
28	O=C(Cc1ccc(-c2ccccc2)cc1)NCCS(=O)(=O)N1CCN(c2cccc(Cl)c2)CC1	0%[46.1 µM]	·	0%	-14%	·	·	·	-1.6%
29	CCCCOC(=O)C1CN(c2ccccc2)N=C1C(=O)OCC (stereo unspecified)	-5%	-16%	-5%	0%	4%	6%	7%	-10%
30	CC12CN3CCN(C1)CC(C)(C3)C2=NO	0%	-2%	-11%	·	-6%	0%	2%	4.8%
31	Cc1c(C(=O)Nc2ccc(Cc3ccncc3)cc2)cccc1[N+](=O)[O-]	1%	-13%	-6%	-2%	?	-16%	2%	-3.6%
32	O=c1c2ccccc2nc(SCCN2CCOCC2)n1CCc1ccccc1	-18%[46.1 µM]	-1%	·	-15%	?	-11%	9%	·
33	Cc1c(N2C(=O)C3C4C=CC(C4)C3C2=O)c(=O)n(-c2ccccc2)n1C (stereo unspecified)	3%[46.1 µM]	2%	·	-4%	11%[46.1 µM]	11%	8%	·
34	CC(=O)N1c2ccc(S(=O)(=O)NCCC(=O)NC3CCCC(C)C3C)cc2CC1C (stereo unspecified)	?	·	·	1%	0%[46.1 µM]	9%	-2%	·
35	Fc1cccc(Nc2ncnc3c2cnn3-c2ccccc2)c1	·	-6%	·	-17%	·	-45%	-3%	·
36	O=C(NCCC(=O)N1CCC2(CC1)NCCc1[nH]cnc12)c1ccc(F)c(F)c1	·	-4%	·	-21%	·	-11%	-2%	·
37	CCC(=O)c1ccc(OCC(=O)OCC(=O)N2CCc3ccccc3C2)cc1	22%	-3%	·	-13%	26%	·	12%	·
38	CCOC(=O)Cn1c(=O)n(C2CCCCC2)c2nc(-c3cccc(C)c3)nc(C(N)=O)c21	21%[46.1 µM]	·	-5%	-4%	·	·	·	-0.4%
39	CCOc1ccc(OCC)c(NC(=O)c2nnn(CC(=O)Nc3cc(C)cc(C)c3)c2N)c1	?	25%	·	-29%	?	7%	14%	·
40	COc1ccc(C(=O)NNC(=O)Cc2ccc(-c3ccccc3)cc2)cc1OC	-4%	3%	12%	-10%	-14%	1%	10%	1.5%
41	CCN(c1ccccc1)S(=O)(=O)c1cccc(C(=O)OCC(=O)Nc2ccc(NC(C)=O)cc2)c1	9%	-1%	·	-13%	2%	·	0%	·
42	CCN1CCN(C(=O)c2ccc(OC3CCN(CCc4ccccc4)CC3)cc2)[C@@H](C)C1=O	6%	-2%	·	-9%	-17%	4%	4%	·
43	Cc1nc(C)c(-c2csc(Nc3ccc(O)c(C(=O)O)c3)n2)s1	-1%	-3%	·	6%	9%	-5%	-1%	·
44	O=C(NC(=S)Nc1cc(S(=O)(=O)N2CCOCC2)ccc1O)c1ccco1	2%[46.1 µM]	-1%	·	-11%	17%[46.1 µM]	·	-10%	·
45	O=C1CNC(=O)/C(=C\c2ccccc2)N1	·	0%	·	-1%	·	6%	4%	·
46	CC(=O)Nc1nonc1-c1nc2ccccc2n1C	?	-8%	·	-8%	0%	2%	-7%	·
47	CCn1cc(C(=O)NCc2ccccc2)c(=O)c2cc(S(=O)(=O)N3CCc4ccccc4C3)ccc21	-6%[46.1 µM]	·	0%	-7%	-12%[46.1 µM]	·	·	-4.0%
48	CCCC(C)NC(=O)COC(=O)c1ccc2c(c1)C(=O)N(Cc1ccco1)C2=O (stereo unspecified)	0%	12%	·	3%	21%	5%	3%	·
49	CNc1ccc(/C=C2\CSc3ccccc3C2=O)cc1[N+](=O)[O-]	?	1%	·	-30%	?	3%	-9%	·
50	COc1ccc(-c2nnn(CC(=O)NC3CCCc4ccccc43)n2)cc1OC (stereo unspecified)	?	4%	?	-9%	-22%	7%	2%	-1.5%
51	CCCCCCCCn1ccc(=N)cc1	?	-3%	·	?	?	-5%	4%	·
52	NNC(=O)c1cc(Br)cs1	-14%	7%	0%	-3%	-31%	3%	0%	-0.2%
53	O=C(NCc1ccco1)C1CCCN(S(=O)(=O)c2cccc3nsnc23)C1 (stereo unspecified)	16%	-2%	-8%	1%	1%[46.1 µM]	-10%	36%	6.9%
54	O=C(NC1CCCC1)c1ccc(Br)s1	7%	-2%	14%	34%[activator]	22%	-15%	?	8.2%
55	CCOC(=O)c1c(NC(=O)COC(=O)Cn2cnc3ccccc32)sc2c1CCC(C)C2 (stereo unspecified)	-14%&-14%	-23%	16%	-2%	-9%&8%	-2%	13%	-11%
56	C/C(O)=C(\C#N)C(=O)Nc1cc(Br)ccc1Br	13%	·	-6%	-14%	20%&-3%&-3%&-3%&-3%&-3%&-3%	0%	-7%	-4.7%
57	CCN1C(=O)c2ccccc2S(=O)c2ccc(C(=O)NC3CC3)cc21 (stereo unspecified)	-14%	-4%	-5%	1%	-12%	3%	4%	3.9%
58	COc1ccc(Cn2c(=O)c3oc4ccccc4c3n(Cc3ccc(Cl)cc3)c2=O)cc1	14%[46.1 µM]	·	-1%	-4%	·	·	·	0.8%
59	O=C(Nc1cccc(NC(=O)c2cccnc2)c1)c1ccccc1	-4%[46.1 µM]	3%	·	-13%	-13%[46.1 µM]	5%	0%	·
60	CC(C)C(OC(=O)C1=Cc2ccccc2OC1)C(=O)NCC1CCCO1 (stereo unspecified)	-1%	·	·	1%	2%[46.1 µM]	·	-11%	·

# Outcome played no part in choosing rows; 4.7% or so of the library scored in one or more.
